Source: PubChem BioAssay
MgrA DNA FP – S. aureus MgrA-DNA binding modulation; 84,000 compounds, 0.13% hits; fluorescence polarization; inhibition, %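 (about 10 µg/mL by stock and volumes)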; AID 602314;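 active = above 50% in either of two replicates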;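 note: 0% = protein plus DNA without compound and 100% = DNA alone without protein; higher means less MgrA bound to DNA so lower polarization; one replicate is shown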
S aureus helic – S. aureus DNA helicase inhibition | purified S. aureus helicase, fluorescence unwinding assay; about half of the hits fall short of the stated cut | inhibition, %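 (tested at about 80 µM)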 | 120,000 compounds, 0.05% hits;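 active = both duplicates at 50% or more, or one of them with a favoured structure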;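 note: 0% = mean of negative control wells and 100% = mean of positive control wells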
An asterisk follows results filed as active; . = no result given. Some of the compounds tested (hit frequency here may not be typical).

SMILES | MgrA DNA FP | S aureus helic
COC(=O)c1cn(NC(=O)/C(C)=C/c2ccccc2)c(=O)c2ccccc12 | 3.6 | 7
CC/C(Cc1ccccc1)=N\NC(=O)c1cccnc1 | . | -7
O=C(CSc1ccccc1)CSc1ccccc1 | 0.2 | .
CCOC(=O)c1ccc(NS(=O)C23CC4CC(CC(C4)C2)C3)cc1 (stereo not drawn) | . | 10
O=C(CSc1nnc(CNC(=O)c2ccccc2)o1)c1ccccc1 | . | -2
O=C(CC1OC(=O)c2ccccc21)NC1CC1 (stereo not drawn) | . | 6
CN(C)S(=O)(=O)c1ccc(SCC(=O)NN2C(=O)NC3(CCCCC3)C2=O)nc1 | . | 21
Cc1ccc(CSc2ncn(-c3ccccc3)n2)cc1 | -1.4 | 2
CN1CCC(N(C)S(=O)(=O)c2ccc(C(=O)NN)cc2)CC1 | . | 11
CCOC(=O)c1csc(NC(=O)c2ccccc2OC)n1 | . | -13
Cc1ccc2nc(-c3nc4ccccc4s3)sc2c1 | . | 9
O=C(Cc1ccccc1)NCCN1CCOCC1 | -0.9 | 1
O=C(CSc1ccccc1)Nc1ccc(NC(=O)c2ccco2)cc1 | 0.6 | -1
O=C(O)CSCC(=O)N1CCN(c2nc3cc(Cl)ccc3s2)CC1 | -2.4 | .
CC(Cc1ccccc1)N/C=C1/CC(=O)NC1=O (stereo not drawn) | -1.1 | 15
COC(=O)c1ccc(-c2ccc(/C=N/NC(=O)CC3(C)OCCCO3)o2)cc1 | 0.9 | 12
Cc1sc2ncn(C(C)C(=O)OC3CCCCC3)c(=O)c2c1C (stereo not drawn) | -0.6 | 17
O=C(OCc1nc2ccccc2[nH]1)C12CC3CC(CC(C3)C1)C2 | 2.2 | 6
O=C(O)CCC(=O)Nc1ccc(-c2nc3ccc(NC(=O)CCC(=O)O)cc3[nH]2)cc1 | . | 12
CN(NC(=O)NC(=O)c1c(Cl)cccc1Cl)c1ccc(C(F)(F)F)cc1[N+](=O)[O-] | -0.8 | .
O=C(COC(=O)c1ccc2c(c1)OCO2)c1ccccc1 | . | -5
CCOc1ccccc1NC(=O)N1CCOc2ccc(C)cc21 | -1.5 | 2
NC(=O)CS(=O)(=O)c1cn(CC(=O)N2CCOCC2)c2ccccc12 | . | -7
Cc1cc(/C=N\NC(N)=S)c2c(C)ccc(C(C)C)cc1-2 | 1.7 | .
O=S(=O)(c1ccc(OC(F)(F)F)cc1)N1CCNCC1 | -1.6 | 9
CCCC1(CCC)NC(=O)NC1=O | . | -13
CCSc1nc2c(c(=O)n1-c1cc(C)cc(C)c1)SCC2 | . | 7
Cc1ccc(S(=O)(=O)CCC(=O)OCc2c(C)noc2C)cc1 | . | -8
CCNC(=O)c1ccc(OC)c(OC)c1 | 2.8 | 5
CCC[C@@H]1C(=O)OC[C@@H]1Cc1cncn1C | -3.4 | .
CCOC(=O)c1ccc(Oc2nc(NC(C)(C)C)nc(N(C)C)n2)cc1 | 0.9 | 12
C=CCN(Cc1nc(-c2ccc(Cl)cc2)no1)C(C)=O | -0.7 | 5
CC(=O)N1CCC2(CC1)C1CN(C(C)=O)CC=C1C(C#N)=C(N)C2(C#N)C#N (stereo not drawn) | . | -10
COc1ccc(C(=O)Nc2cccc(S(C)(=O)=O)c2)cc1 | -0.3 | 4
O=C1NC(c2cccs2)Nc2ccccc21 (stereo not drawn) | . | 0
CC(C)NC(=O)c1cc2n(n1)C(C(F)(F)F)CC(c1cccs1)N2 (stereo not drawn) | -0.4 | 6
CC(=O)Nc1sc2c(c1C(=O)O)CCC2 | . | 4
Cc1cc(N(C(=O)c2ccc3c(=O)n4c(nc3c2)CCCCC4)C(=O)c2ccc3nc4n(c(=O)c3c2)CCCCC4)no1 | . | 10
COc1ccccc1C(=O)Nc1ccccc1N1CCN(C(C)=O)CC1 | 5.6 | 10
C/C(=N\N)c1c(-c2ccccc2)c2cc(C)ccc2[nH]c1=O | 0.6 | 9
CC1Sc2ccc(C(=O)Oc3ccc4c(c3)OCO4)cc2NC1=O (stereo not drawn) | . | 2
Cc1ccccc1Cc1c(C)[nH]c2nc3ccccc3n2c1=O | -1.7 | -4
Cc1ccc(C)c(NCc2cc(=O)n3ccsc3n2)c1 | . | 4
O=C(CCN1C(=O)/C(=C\c2ccco2)SC1=S)Nc1ccccc1 | . | 3
O=C(c1csc2c1CCCC2)N1CCCCC1 | 0.9 | -14
COc1cc(CNCCN2CCOCC2)cc(Cl)c1OCC(N)=O | -8.0 | 2
CC1(C)CC(=O)/C(=N/Nc2ccccc2)CO1 | . | -16
NNc1nc(C(F)(F)F)nc2c1cnn2Cc1ccccc1 | . | 25

22 compounds already listed, arranged by formula weight, falling.
SMILES | MgrA DNA FP | S aureus helic
Cc1cc(N(C(=O)c2ccc3c(=O)n4c(nc3c2)CCCCC4)C(=O)c2ccc3nc4n(c(=O)c3c2)CCCCC4)no1 | . | 10
CC(=O)N1CCC2(CC1)C1CN(C(C)=O)CC=C1C(C#N)=C(N)C2(C#N)C#N (stereo not drawn) | . | -10
CCOC(=O)c1ccc(Oc2nc(NC(C)(C)C)nc(N(C)C)n2)cc1 | 0.9 | 12
CC(C)NC(=O)c1cc2n(n1)C(C(F)(F)F)CC(c1cccs1)N2 (stereo not drawn) | -0.4 | 6
COc1ccccc1C(=O)Nc1ccccc1N1CCN(C(C)=O)CC1 | 5.6 | 10
CC1Sc2ccc(C(=O)Oc3ccc4c(c3)OCO4)cc2NC1=O (stereo not drawn) | . | 2
Cc1ccc(S(=O)(=O)CCC(=O)OCc2c(C)noc2C)cc1 | . | -8
CCSc1nc2c(c(=O)n1-c1cc(C)cc(C)c1)SCC2 | . | 7
O=S(=O)(c1ccc(OC(F)(F)F)cc1)N1CCNCC1 | -1.6 | 9
NNc1nc(C(F)(F)F)nc2c1cnn2Cc1ccccc1 | . | 25
COc1ccc(C(=O)Nc2cccc(S(C)(=O)=O)c2)cc1 | -0.3 | 4
Cc1ccccc1Cc1c(C)[nH]c2nc3ccccc3n2c1=O | -1.7 | -4
Cc1cc(/C=N\NC(N)=S)c2c(C)ccc(C(C)C)cc1-2 | 1.7 | .
C=CCN(Cc1nc(-c2ccc(Cl)cc2)no1)C(C)=O | -0.7 | 5
C/C(=N\N)c1c(-c2ccccc2)c2cc(C)ccc2[nH]c1=O | 0.6 | 9
Cc1ccc(C)c(NCc2cc(=O)n3ccsc3n2)c1 | . | 4
O=C(c1csc2c1CCCC2)N1CCCCC1 | 0.9 | -14
CC1(C)CC(=O)/C(=N/Nc2ccccc2)CO1 | . | -16
CC(=O)Nc1sc2c(c1C(=O)O)CCC2 | . | 4
CCC[C@@H]1C(=O)OC[C@@H]1Cc1cncn1C | -3.4 | .
CCNC(=O)c1ccc(OC)c(OC)c1 | 2.8 | 5
CCCC1(CCC)NC(=O)NC1=O | . | -13

Next compounds:
SMILES | MgrA DNA FP | S aureus helic
O=S(=O)(NCc1ccccc1)c1ccc(N2CCCCS2(=O)=O)cc1 | . | 3
Fc1ccc(C2=NN(C(=S)NCc3ccccc3)CCC2)cc1 | -1.0 | .
CC1OCC/C1=N/OC(=O)Nc1c(Cl)cccc1Cl (stereo not drawn) | . | 8
O=C(O)C1=C(Nc2ccccc2)OCC1=O | . | -4
Cc1sc(NC(=O)CSCC(=O)N2CCCCC2)nc1-c1ccccc1 | . | 8
CCOC(=O)COc1ccc2c(=O)c(-c3cscn3)coc2c1 | . | 12
CC(=O)Nc1c(C(=O)c2ccc(F)cc2)oc2ccccc12 | 1.1 | 0
Cc1c(C(=O)Nc2ccc(C(=O)O)cc2)cnn1C | . | 8
O=C(NCCCO)c1cc2ccccc2oc1=O | 0.7 | 5
O=C(CCCc1nc2ccccc2s1)NC1CCOC1=O (stereo not drawn) | . | 21
CSc1nc(SC)c(C#N)c(-c2cccs2)n1 | -1.3 | .
O=C(Nn1c(-c2cccc([N+](=O)[O-])c2)nc2ccccc2c1=O)c1ccc(Br)cc1 | 0.1 | .
COc1ccc(N(C)C(=O)c2ccc3c(c2)nnn3C)cc1 | -1.0 | 19
CC(OC(=O)Cn1cc(C(F)(F)F)ccc1=O)C(=O)Nc1ccc2c(c1)OCO2 (stereo not drawn) | . | -9
CCOC(=O)C(O)(C1C(=O)CC(C)(C)CC1=O)C(F)(F)F (stereo not drawn) | . | -32
Cc1csc(N(C(=O)Cn2nnc3ccccc32)c2ccccc2)n1 | . | 7
Cc1c(C(=O)N2CCOCC2)c(S(=O)(=O)NCCc2ccc(Cl)cc2)c(C)n1C | . | 14
CN1C(=C(C#N)C(=O)COc2ccc(F)cc2Cl)N(C)c2ccccc21 | . | 3
CN(C)CCN(C)Cc1cccc(C(F)(F)F)c1 | -2.8 | .
CC(c1ccccc1)C1CC(=O)N(Cc2ccco2)C1=O (stereo not drawn) | 5.2 | 5
O=C(OCCN1C(=O)c2ccccc2C1=O)c1ccc(S(=O)(=O)NCc2ccco2)cc1 | . | -8
CCc1ccc(OCC(=O)N2CCCCC2)cc1 | 1.8 | -15
CC(Sc1ccccc1F)C(=O)Nc1ccc(S(N)(=O)=O)cc1 (stereo not drawn) | . | 11
Cc1cc(-n2c(C)cc(C(=O)CSc3ccc4c(c3)OCCO4)c2C)no1 | . | 1
O=C1Cc2cccc3cccc1c23 | 2.0 | -2
O=C(O)CSc1nc2cc(Cl)ccc2n1Cc1ccccc1 | -0.1 | 17
CCN(CC(=O)NC1CCS(=O)(=O)C1)C(=O)c1cc(C)on1 (stereo not drawn) | . | -4
COc1ccc(C)cc1S(=O)(=O)NC(C)(C)C | 1.4 | 5
CC1CN(C(=O)COC(=O)C23CC4CC(CC(C4)C2)C3)CC(C)O1 (stereo not drawn) | -0.1 | -20
O=C(Nc1ccc(Cl)cc1)c1cc2ccccc2o1 | -3.5 | .
CCN(CC)CCNC1CCN(C)CC1 | -1.8 | 0
NC(=O)NCc1ccc2[nH]c3c(c2c1)CCCC3 | -0.6 | 6
O=C(NC1CCCC1)c1cc2sccc2n1Cc1ccccc1 | -1.6 | 8
O=C(CN1N=C(c2ccccc2)CCC1=O)NC1CCCC1 | . | 3
CCN1CCc2c(OCC(=O)N3CCCc4ccccc43)cccc2C1=O | . | 12
O=C(c1ccc([N+](=O)[O-])cc1)N1CCN(Cc2ccccc2)CC1 | -1.1 | .
COc1cc2ccccc2c(=O)c2ccsc12 | -1.1 | .
COc1ccc(CN2CCC(=O)NC2=O)cc1C | 2.9 | -22
CCOC(=O)N1CCN(S(=O)(=O)c2cc(Cl)c(C)cc2OCC)CC1 | 0.7 | 8
O=C(CN1C(=O)C2C3C=CC(C3)C2C1=O)Nc1nc(-c2ccccc2)cs1 (stereo not drawn) | . | -16
CCc1cccc(NC(=O)C(CC(C)C)NC(=O)C2CCCCC2)c1 (stereo not drawn) | -2.3 | 13
O=C(NC(=S)NCc1ccco1)c1ccc(-c2ccccc2)cc1 | 3.1 | 10
Cc1ccc(S(=O)(=O)c2nc(-c3ccccc3)oc2NCCN2CCOCC2)cc1 | 6.0 | 11
Cc1ccc(OCCN2CCN(c3cc(C)c(C#N)c4nc5ccccc5n34)CC2)cc1 | 3.2 | 4
Cc1cc(Cl)ccc1NNC(=O)c1snnc1C | . | 18
CCOC(=O)NN1C(=O)c2ccccc2NC12CCCCC2 | . | 26
Cn1cnc(S(=O)(=O)NCc2csc3ccc(Cl)cc23)c1 | -1.1 | .
CC1Cc2ccccc2N1C(=O)c1nc2ccccc2s1 (stereo not drawn) | 0.1 | 13
COc1ccc(S(=O)(=O)Nc2ccc(C(=O)Nc3nccs3)cc2)cc1 | . | 9
CC1=NN(c2ccc(C)c(C)c2)C(=O)/C1=C/c1ccc(N2CCOCC2)cc1 | 0.7 | 5
CCOC(=O)c1cnc(Nc2nc3ccccc3s2)nc1C | . | -15
CC1=C(C#N)C(=O)N(CC(C)O)C(=O)/C1=C/c1ccc(-c2ccc(C(=O)OC(C)C)cc2)o1 (stereo not drawn) | . | 31
COc1cc(Br)c(CC(=O)OCc2nc(N)nc(Nc3ccc(C)cc3)n2)cc1OC | . | -16
COc1ccccc1NC(=O)N1CCN(C(=O)OC(C)(C)C)CC1 | -2.0 | .
O=C(O)C(CC1COc2ccccc2O1)C(=O)O (stereo not drawn) | . | -9
c1ccc2sc(Nc3nc4cc5c(cc4s3)OCO5)nc2c1 | . | 19
CCO/C(C)=C(\C#N)C(N)=O | . | 15
NC(=O)CNC(=O)c1ccccc1 | -2.4 | .
N#CC(C#N)C(C#N)(C#N)C1CCCC1=O (stereo not drawn) | . | -174
Cc1noc(C)c1S(=O)(=O)Nc1ccc(N2CCN(C(=O)OC(C)(C)C)CC2)nc1 | . | -13
The list goes on.
SMILES | MgrA DNA FP | S aureus helic
O=C(O)c1cc(C2CCCCC2)no1 | -7.9 | -2
OC1CSC(=S)N1Cc1ccco1 (stereo not drawn) | . | -3
Cc1ccc(C)c(-n2ccn(CC#N)c(=O)c2=O)c1 | . | 7
Cc1nc(C(F)(F)F)ccc1C(=O)NCCNc1ncccc1C(F)(F)F | -1.2 | .
O=C(/C=C/c1cccs1)NC(=S)NCc1ccccc1 | 0.8 | .
COc1cc(N/C=C(\C#N)c2nc(-c3cc4ccccc4oc3=O)cs2)c(OC)cc1Cl | -3.6 | .
COc1ccc(CC(=O)NCC(C)(C)N2CCOCC2)cc1 | . | 6
Cc1cc(C)c2nc(SCC(=O)c3ccco3)cc(C)c2c1 | . | -2
NC(=O)c1c(/N=c2\oc3ccc(Cl)cc3cc2C(N)=O)sc2c1CCCC2 | 0.5 | .
CCCc1cc(C(=O)N2CCCN(C)CC2)cs1 | -1.9 | 3
CC(C)C(NC(=O)CSc1nnc(-c2ccc(F)cc2)o1)c1nc2ccccc2[nH]1 (stereo not drawn) | . | -5
Cc1cc(NC(=O)CSc2nc3ccc(N4CCOCC4)cc3c(=O)n2CCc2ccccc2)n[nH]1 | . | 1
CCCCCn1c(N2CCOCC2)nc2c1c(=O)n(CC(N)=O)c(=O)n2C | . | 7
CSc1nc2ccccc2c(=O)n1Cc1ccc(F)cc1 | . | -3
Nn1c(COc2cccc(Br)c2)nnc1SCC(=O)NCc1ccccc1 | . | -4
COc1cccc(CNc2ccc3c(c2)ncn3C2CCCCC2)c1 | -0.1 | 2
